Compound activity from PubChem.
H5N1 CPE – MDCK cell protection from H5N1 avian flu. 0.07% of 96,000 active. cytopathic effect, luminescence, 72 h; hits give high values; no value below 0 was filed and about half of the inactive calls have no number; reference of the scale not given here. AID 740, 2007. inhibition, % at 50 µM; in the data active = inhibition above about 25%
Starred values were filed as active, the others as inactive; i = inactive. A portion of the library; the hit share may differ from the screen's.

SMILES | H5N1 CPE
CCCN(CCC)C(=O)CSc1nc2ccccc2c(=O)n1CC1COc2ccccc2O1 (configuration not stated) | 1.1
COc1ccccc1N1CCN(C(=O)c2c(-c3ccccc3Cl)noc2C)CC1 | i
O=c1[nH]c(=O)n(-c2ccc(F)cc2)c(O)c1C=Nc1ccccc1N1CCCC1 | 0.5
COc1ccc(OC)c(C(=O)c2ccc(C(=O)c3cc(OC)ccc3OC)cc2)c1 | i
Cc1cc(NS(=O)(=O)c2ccc(NC(=O)C(C)Oc3ccc4c(C)cc(=O)oc4c3)cc2)no1 (configuration not stated) | 0.5
COC(=O)C1=C(C)NC2=C(C(=O)CCC2)C1c1ccsc1 (configuration not stated) | 0.6
C/C(=C\c1ccco1)C1Nc2cccc3cccc(c23)N1 | 2.7
O=C(c1ccco1)N(c1ccccn1)c1ccccn1 | i
CC1=C(C(=O)OC(C)C)C(c2cccs2)N2C(=O)C(C)SC2=N1 (configuration not stated) | i
Cc1ccc(Cn2nc(C)c3cc(C(=O)OCC(N)=O)sc32)cc1 | 1.5
O=C(CN1CCN(Cc2ccccc2)CC1)N1CCCc2c1c(=O)oc1ccc(O)cc21 | 0.6
CCc1nc2sc3ccccc3c(=O)c2c(=O)n1CCOC | i
O=C(NCCN1CCOCC1)c1cc(-c2ccc(Br)cc2)on1 | i
N#Cc1c(N)n[nH]c1CCCN | i
Cc1ccc(-c2csc(N(CCc3ccccc3)C(=O)COc3ccccc3)n2)cc1 | 1.8
Cn1cccc1C(=O)C(=O)Nc1cccc(Cl)c1Cl | i
CCOC(=O)Cc1csc(NC(=O)c2ccc(C)o2)n1 | 0.6
COc1ccc2[nH]c3c(=O)n(CCCCC(=O)N4CCCC4)c(=S)[nH]c3c2c1 | 0.3
CCCC(=O)Nc1cc(-c2nn(C)c(=O)c3ccccc23)ccc1N1CCOCC1 | 1.8
COc1ccc(-c2nc(C(N)=O)c3[nH]c(=O)n(-c4cccc(Cl)c4)c3n2)cc1OC | 0.6
CCC(C)NC(=O)C1CCN(c2nc(C)cc(C)n2)CC1 (configuration not stated) | i
CC(SC1=NCCS1)C(=O)Nc1nnc(-c2ccc(F)cc2)s1 (configuration not stated) | 1.9
Cc1cc(C)n2nc(SCC(=O)N(C)c3ccccc3)nc2n1 | i
COc1ccccc1CO/N=C/NC(=O)c1c(OC)ccnc1Oc1ccc(F)cc1 | i
COc1cc(NC(=O)c2ccc(CNc3c(N4CCOCC4)c(=O)c3=O)cc2)cc(OC)c1 | 2.2
Cc1nc(NC(C)C)c2cnn(CCc3ccccc3)c2n1 | 0.3
O=C(NCCCNC(=O)c1ccccn1)c1ccccn1 | i
CC(=O)C1=C(C)NC(=O)NC1c1ccc(OC2CCCC2)cc1 (configuration not stated) | i
Cn1ncc(N=Cc2ccccc2)c1C(=O)Nc1cccc(Cl)c1 | i
CC(C)c1ccc(CNc2ccc(N3CCOCC3)cc2)cc1 | i
Cc1ccc(NC(=O)CSC2=Nc3ccccc3C3CC=NN23)c(C)c1 (configuration not stated) | 0.9
Cc1ccc(S(=O)c2ccc(C)cc2)cc1 | i
COc1ccccc1N1CCN(C(c2cccs2)c2nnnn2C2CCCC2)CC1 (configuration not stated) | i
CC(C)=CC(=O)OCC(=O)Nc1ccc(Cl)cn1 | 0.5
COc1ccc(OC)c(NC(=O)C2CCN(S(C)(=O)=O)CC2)c1 | i
CC1=C(C(=O)NCc2ccccn2)C2(CCC(C)CC2)OC1=O (configuration not stated) | 0.7
COCCn1c(SCC(=O)Nc2cc(C)on2)nnc1-c1c[nH]c2ccccc12 | 1.5
S=C(Nc1ccccc1)Nc1ccc(OCc2ccccc2)cc1 | i
COc1ccc(OC)c(-n2c(-c3ccc(C)cc3)n[nH]c2=S)c1 | i
O=c1c2ccsc2ncn1Cc1ccccc1F | 0.3
COc1cc(CNCCO)cc(Br)c1OCc1ccccc1Cl | i
O=C1CC(=O)C(n2cncn2)C(c2ccc(Cl)cc2)C1 (configuration not stated) | 0.9
CCC(C)c1c(O)nc(SCC(=O)Nc2ccccc2)[nH]c1=O (configuration not stated) | i
CC(C)CCN1CC(O)=C(c2nc3ccccc3[nH]2)C1=N | 0.5
COC(=O)Cn1cnc2sc(C)c(S(=O)(=O)N3CCC(C)CC3)c2c1=O | 0.5
COc1cc2c(cc1NC(=O)CN1CCN(S(=O)(=O)c3ccc(C)cc3)CC1)oc1ccccc12 | 1.6
CC(O)Cc1nsc(NC(=O)c2cccs2)n1 (configuration not stated) | 1.0
O=C(Nc1cnn(Cc2c(Cl)cccc2Cl)c1)c1ccc([N+](=O)[O-])cc1 | i
CCOC(=O)CN1CC23C=CC(O2)C(C(=O)NCc2ccccc2OC)C3C1=O (configuration not stated) | 1.1
COc1ccc2nc(SCc3cnc(C)nc3N)[nH]c2c1 | 0.1
O=C(CN1C(=O)C2C3C=CC(C3)C2C1=O)Nc1nc(-c2ccccn2)cs1 (configuration not stated) | 1.1
Cc1ccc(Cn2cc(/C=C/C(=O)O)c(-c3ccccc3)n2)cc1 | i
O=C1c2ccccc2C(=O)N1OCc1cccc(Cl)c1 | i
Cc1ccc(-n2c(C)nc3c(cnn3-c3ccccc3Cl)c2=O)cc1C | 0.3
COc1ccc(C(=O)N(Cc2nc(-c3ccc(C)cc3)no2)C2CCCCC2)cc1OC | 1.3
CCOc1ccc(-c2cc(CCCC(=O)N3CCN(c4ccc(OC)cc4)CC3)no2)cc1 | 0.4
Nc1nc(SCc2c(Cl)cccc2Cl)n[nH]1 | 0.7
O=C(c1ccc(S(=O)(=O)N2CCC(c3nc4ccccc4[nH]3)CC2)cc1)N1CCOCC1 | 0.2
CSc1nc2c(ccc3ccccc32)o1 | 5.5
Cc1ccc(O)c(C(=O)c2cnc3c(c2)CN(C)C(=O)N3)c1 | 0.2

Continued:
SMILES | H5N1 CPE
Cc1nc(=O)c(-c2ccccc2)c(C)n1-c1ccc(S(N)(=O)=O)cc1 | i
S=C(Nc1cccc2ccccc12)N1CCN(c2ncccn2)CC1 | 0.3
Cc1ccc(C)n1-c1ccc(C(=O)O)cc1 | 3.9
N#Cc1cc(Oc2cccc3cccnc23)c(-n2nnc3ccccc32)cc1C#N | 5.0
CCCCNC(=O)CCNC(=O)c1ccc(C(C)(C)C)cc1 | 1.3
Cc1cc(=O)n2[nH]c(-c3ccc(F)cc3)nc2n1 | 1.9
Cc1cc(C)n(-c2ccc(Cl)c(C(=O)Nc3ccc(-c4nnc5n4CCCCC5)cc3)n2)n1 | i
CCCCN(CC)C(=O)Cn1ncc2c1-c1cc(C)ccc1OC2 | 1.2
CCn1c(SCC(=O)N2CCCC2)nnc1-c1ccc(S(=O)(=O)N2CCCCCC2)cc1 | 1.9
CN(C(=O)COC(=O)c1ccc2c(c1)OCO2)C1CCS(=O)(=O)C1 (configuration not stated) | 0.6
CC(=O)C1=C(C)NC(SCSc2ccccc2)=C(C#N)C1c1cccnc1 (configuration not stated) | 1.5
Cc1onc(-c2ccccc2)c1C(=O)NCC1CCN(C(=O)c2c(-c3ccccc3)noc2C)CC1 | 0.1
O=C(CC(SCc1ccco1)c1ccc(O)cc1)c1cccs1 (configuration not stated) | 0.1
O=C(NCCCCC(NC(=O)C1CCCCC1)C(=O)O)c1ccccc1 (configuration not stated) | 0.8
COc1ccc(N2CC(O)=C(c3nc4ccccc4s3)C2=N)c(OC)c1 | 0.4
CCOC(=O)c1ccccc1NC(=O)c1cncc(Br)c1 | i
Cn1c(=O)cc(SCC(=O)NCCCN2CCOCC2)c2ccccc21 | 0.7
CCOc1ccccc1C1CC(c2ccc(F)cc2)Nc2nc(N)nn21 (configuration not stated) | 1.6
Cc1ccc(C(=O)NCCn2cc(SCC(=O)N3CCOCC3)c3ccccc32)cc1 | 0.9
Cc1ccc2cc3cc(C(=O)NCc4ccco4)oc3nc2c1 | 0.4
COc1cc(C(=O)N2CCN(c3cccc(C)c3C)CC2)cc(OC)c1OC | i
CN(C(=O)c1ccc2c(c1)OCO2)C1(C(=O)NC2CCCCC2)CCCCC1 | 0.6
O=C(NCc1ccc2c(c1)OCO2)c1cccc(S(=O)(=O)N2CCCCC2)c1 | i
Cc1ccc(N=C(NO)c2nonc2N)cc1 | i
COc1cc(C(=O)O)cc(Br)c1OC1CCCC1 | i
CCOC(=O)CCNC(=O)Nc1ccc2nc(C)n(Cc3ccc(Cl)cc3)c(=O)c2c1 | 0.7
COc1ccc(Cc2nc(-c3ccc(Cl)cc3)no2)cc1 | 1.4
NC(=O)c1cccc(S(=O)(=O)N2CCCCC2)c1 | 1.7
COc1ccccc1NC(=O)c1cccnc1 | i
Cc1nn(C(C)C(=O)N2CCc3ccccc3C2)c(=O)c2cc3occc3n12 (configuration not stated) | 1.3
Cc1cc2c(N=O)c(NO)ccc2[nH]1 | i
Cc1ccccc1C(=O)Nc1ccc(Br)c(C)n1 | 0.9
COCC(C)NC(=O)CCS(=O)(=O)c1nc(-c2ccc(OC)cc2)cc(C(F)(F)F)n1 (configuration not stated) | 4.3
CC(C)N(CCc1ccncc1)C(=O)Nc1ccc(Cl)c(Cl)c1 | 0.6
CCOc1ccccc1N(C(=O)Cn1nnnc1-c1ccc(C)o1)C(CC)C(=O)NC(C)(C)C (configuration not stated) | i
O=C1Nc2ncccc2OC1CCO (configuration not stated) | 0.3
O=C(COC(=O)Cc1ccc(S(=O)(=O)N2CCCCC2)s1)Nc1ccc2c(c1)OCO2 | i
CCc1ccc(CNCc2cccnc2)cc1 | 2.2
O=C(NCCN1CCOCC1)c1cn(-c2ccccc2)nc1-c1cccs1 | 0.2
CC(C)CCNC(=O)CN(C(=O)CCC(=O)Nc1ccccn1)c1ccc2c(c1)OCO2 | i

17 compounds from above, sorted by molar mass, lowest first.
SMILES | H5N1 CPE
Cc1cc2c(N=O)c(NO)ccc2[nH]1 | i
O=C1Nc2ncccc2OC1CCO (configuration not stated) | 0.3
CCc1ccc(CNCc2cccnc2)cc1 | 2.2
COc1ccccc1NC(=O)c1cccnc1 | i
Cc1ccc(N=C(NO)c2nonc2N)cc1 | i
NC(=O)c1cccc(S(=O)(=O)N2CCCCC2)c1 | 1.7
COc1ccc(Cc2nc(-c3ccc(Cl)cc3)no2)cc1 | 1.4
CC(C)N(CCc1ccncc1)C(=O)Nc1ccc(Cl)c(Cl)c1 | 0.6
Cc1nn(C(C)C(=O)N2CCc3ccccc3C2)c(=O)c2cc3occc3n12 (configuration not stated) | 1.3
O=C(NCCN1CCOCC1)c1cn(-c2ccccc2)nc1-c1cccs1 | 0.2
COc1cc(C(=O)N2CCN(c3cccc(C)c3C)CC2)cc(OC)c1OC | i
CN(C(=O)c1ccc2c(c1)OCO2)C1(C(=O)NC2CCCCC2)CCCCC1 | 0.6
O=C(NCc1ccc2c(c1)OCO2)c1cccc(S(=O)(=O)N2CCCCC2)c1 | i
CC(C)CCNC(=O)CN(C(=O)CCC(=O)Nc1ccccn1)c1ccc2c(c1)OCO2 | i
CCOC(=O)CCNC(=O)Nc1ccc2nc(C)n(Cc3ccc(Cl)cc3)c(=O)c2c1 | 0.7
COCC(C)NC(=O)CCS(=O)(=O)c1nc(-c2ccc(OC)cc2)cc(C(F)(F)F)n1 (configuration not stated) | 4.3
CCOc1ccccc1N(C(=O)Cn1nnnc1-c1ccc(C)o1)C(CC)C(=O)NC(C)(C)C (configuration not stated) | i

(listing goes on)
SMILES | H5N1 CPE
Clc1ccc(NC2(c3nnnn3C3CCCCC3)CCCCC2)cc1 | i
O=C(Nc1ccn(Cc2ccccc2F)n1)c1ccc(COc2ccc(Br)cc2)cc1 | i
CCCCC(=O)NC1(C(F)(F)F)C(=O)Nc2c1c(=O)n(C)c(=O)n2C (configuration not stated) | i
CCCCOc1ccccc1C1C(C(N)=O)=C(C)Nc2nnnn21 (configuration not stated) | i
CCOc1cc(/C=C2/C(=O)ON=C2C)ccc1OCc1ccccc1F | 1.5
COc1ccc(C)cc1NC(=O)CCS(=O)(=O)c1cccc2nonc12 | i
CCCCNC(=O)N(C)c1nncnc1C(=O)NC | i
COc1ccc(C)cc1NC(=O)c1nnn(Cc2cc(C)ccc2C)c1N | i
COc1ccc(-c2nnc(SCC(=O)Nc3cc(C)on3)n2C)cc1OC | 0.3
COc1ccc(NC(=O)c2ccccc2O)c(OC)c1 | i
O=[N+]([O-])c1nn(-c2ccc3c(c2)OCCO3)n(O)c1=NC1CCCC1 | i
CC1=CCC2C(=O)N(Cc3ccccc3)C(=O)C2C1 (configuration not stated) | 0.8
COc1ccc(-c2nnc(NC(=O)C(C)C)s2)c(OC)c1 | i
O=C1CC(c2ccc(S(=O)(=O)NC3CC3)cc2)CN1 (configuration not stated) | 1.2
Cc1cccc(C)c1NC(=O)c1ccc(CN2CCc3ccccc3C2)cc1 | i
Cc1ccnc(NS(=O)(=O)c2ccc(N=CC3=C(O)CC(C)(C)CC3=O)cc2)n1 | i
Fc1ccc(-c2cc(C(F)(F)F)nc(NCC3CCCO3)n2)cc1 (configuration not stated) | 0.3
Cc1ccccc1OCCN1C(=O)c2ccccc2C1=O | 0.3
Cn1c2ccc(CC(=O)O)cc2c2cc(CC(=O)O)ccc21 | 0.6
Cc1ccc(C)c(S(=O)(=O)N2C(=S)NC(=O)C2C(C)C)c1 (configuration not stated) | i

Overlap with the part before: 2 entries; new compounds follow.
SMILES | H5N1 CPE
Cn1c2ccc(CC(=O)O)cc2c2cc(CC(=O)O)ccc21 | 0.6
Cc1ccc(C)c(S(=O)(=O)N2C(=S)NC(=O)C2C(C)C)c1 (configuration not stated) | i
CC1CCCCC1NC(=O)Cn1nc(-c2ccccc2)ccc1=O (configuration not stated) | 0.7
CC(=O)Nc1ccc(Oc2ccc3nc(C)[nH]c3c2)cc1 | i
Cc1[nH]c2ccccc2c1C(=O)CN1CCN(C/C=C/c2ccccc2)CC1 | i
O=C(c1nc2ncccn2n1)N1CCN(c2ccccc2)CC1 | 1.1
Nc1ccc2oc(-c3cc(Br)ccc3Cl)nc2c1 | i
CCC1CCC(C(=O)NC(C(=O)Nc2ccc3c(c2)OCCO3)C(C)C)CC1 (configuration not stated) | i
COc1ccccc1C(c1nnnn1CCc1ccccc1)N1CCN(c2ccccc2)CC1 (configuration not stated) | 4.9
O=C(Cn1c(NCCCO)nc2ccccc21)c1cccc(Br)c1 | i
CC(C)N1CCC2(CC1)N=C(c1ccc3c(c1)OCO3)CC(c1cc(Cl)ccc1O)N2 (configuration not stated) | i
Cc1nn2c3ccccc3nc2n(C)c1=O | 0.7
NS(=O)(=O)c1ccc(CCNc2cc(=O)n(Cc3ccc(F)cc3)c(=O)[nH]2)cc1 | i
CCc1ccc(OCCNC(=O)c2ccccc2SCc2ccc(F)cc2)cc1 | 4.3
CC(=O)CC(=O)Nc1ccccc1NC(C)=O | 0.3
